T cruzi repl – blocks replication of Trypanosoma cruzi; T. cruzi beta-gal in NIH3T3, luminescence, 90 h; inhibition, % (no concentration beside the values); 300,000 tested, 1.4% active; AID 1885;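 active means mean inhibition across valid replicates above about 55%, limit read from the data; inconclusive means mean below that limit but half or more replicates reach it; inactive means mean below it, under half of replicates reach it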;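 further: signal also drops with host cell toxicity which is not excluded here; 0% = plate median of DMSO wells and 100% = zero luminescence signal; higher percent means less beta-gal luminescence so fewer parasites; stock transfer was 50 nL into about 50 µL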
MLL AF4-AF9 inh – blocks AF4 peptide binding to human AF9; P42568; AlphaScreen, biotin-AF4 peptide binding to FLAG-AF9; inhibition, % at 10 µM; 350,000 tested, 0.47% active; AID 651704;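 active means every replicate reaching a set inhibition limit, whatever the replicate mean, cut at about 25% in these data; inconclusive means mean inhibition reaches that limit but some replicates miss it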;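 further: 0% = plate neutral control median and 100% = total signal loss; the record names both 10 and 1 µM as test concentration; the first replicate is given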
Target sequence (P42568 whole entry, looked up): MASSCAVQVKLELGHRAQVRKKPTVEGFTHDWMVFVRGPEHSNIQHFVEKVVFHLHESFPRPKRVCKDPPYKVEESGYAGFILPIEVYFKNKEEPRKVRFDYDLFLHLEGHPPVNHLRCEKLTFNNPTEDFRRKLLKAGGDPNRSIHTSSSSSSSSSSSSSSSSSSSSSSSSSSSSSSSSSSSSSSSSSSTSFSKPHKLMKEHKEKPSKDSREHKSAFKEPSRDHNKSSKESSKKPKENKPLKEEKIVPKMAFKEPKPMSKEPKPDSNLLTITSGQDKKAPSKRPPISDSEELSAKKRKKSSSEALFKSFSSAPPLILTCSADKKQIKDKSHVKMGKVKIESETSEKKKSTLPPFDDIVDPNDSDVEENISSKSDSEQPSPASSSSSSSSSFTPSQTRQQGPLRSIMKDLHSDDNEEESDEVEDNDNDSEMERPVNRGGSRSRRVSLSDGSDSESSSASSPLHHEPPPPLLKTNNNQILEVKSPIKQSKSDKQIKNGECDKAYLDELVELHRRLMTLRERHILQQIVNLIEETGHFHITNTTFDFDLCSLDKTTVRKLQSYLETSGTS
Bfl-1 A1 inh – inhibitors of the anti-apoptotic protein A1, read as caspase activation. MEF A1-2A-BIM cells, Caspase-Glo 3/7 luminescence, 3 h; percent of clofoctol response, vehicle zero. caspase activation, % (no concentration beside the values). 330,000 tested, 0.066% active. AID 2462;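 active means over half of replicate activation scores above 10%, or exactly half above 10 with the replicate mean above 10; inconclusive means replicate mean below 10 yet half the replicates above 10; inactive means over half of replicates below 10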;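 further: wells of about 30 µL received 50 nL stock; many hits fall short of the cut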
RanGTP-Impb inh – inhibitors of RanGTP-importin-beta interaction, primary screen, biochemical, FRET, CFP-Ran, YFP-importin-beta, homogeneous; cell-free CFP-Ran/YFP-importin-beta FRET ratio; inhibition, % (test concentration not listed); 300,000 tested, 1.1% active;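 active means most replicates above 15%; inconclusive means exactly half above 15%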;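 further: 0% = DMSO wells and 100% = Ran loaded with GDP instead of GTP; wells of about 40 µL received 100 nL stock; the first replicate is given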
LANA-H2B inh – blocks KSHV LANA binding to histone H2A/H2B. Q9QR71. cell-free LANA-H2A/H2B peptide, fluorescence polarization. inhibition, % (concentration not given with the values). 320,000 tested, 0.6% active. AID 2629; in the data active means inhibition mostly above about 10%, no sharp cut-off; inactive means mostly below about 6.7%;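 further: stock transfer was 7.5 nL into about 10 µL; 0% = median of vehicle wells and 100% = median of positive control wells; one replicate is shown; the record names a cut of 25% in any replicate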
Vif TR-FRET – inhibitors of Vif binding to APOBEC3G peptide, primary screen, biochemical, TR-FRET, GST-Vif 1-94, biotin-A3G peptide, dose response retest (AID 1117319); TR-FRET GST-Vif / biotin-A3G peptide binding; higher % means a stronger effect; test concentration not given here; strong numbers were not always called active; one-dose inhibition, %; IC50 in µM for titrated hits; 260,000 tested, 0.57% active;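 active means above the screen mean plus three standard deviations and confirmed in dose response; inconclusive means results disagree or hit not tested in dose response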;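 further: Vif residues 1-94 fused to GST binding biotinylated APOBEC3G peptide 110-148; 0% = full assay without inhibitor and 100% = GST in place of GST-Vif; retest series ran down from 100 µM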
Beta apoptosis – beta cell apoptosis inhibition; INS-1E cytokine-induced death, ATP luminescence, 48 h; percent of positive-control rescue, neutral wells zero; protection from apoptosis, % (concentration not given with the values); 300,000 tested, 0.8% active;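 active means all replicates at 75% or more, or half of them and the mean; inconclusive means half reach 75% but not the mean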;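 further: 0% = cytokine-treated negative control wells and 100% = positive control rescue; higher means more ATP so stronger rescue from cytokine killing; wells of about 40 µL received 100 nL stock; the first replicate is given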
Calb FLC – affects C. albicans growth with fluconazole. growth inhibition, % (concentration not given with the values). C. albicans CaCi-2 (fluconazole-resistant clinical isolate) + fluconazole, Alamar Blue growth, 48 h. 300,000 tested, 0.57% active;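 active means most replicates above 75%; inconclusive means exactly half above 75%; inactive means most below 75%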;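 further: all wells also contain fluconazole at 8 µg/ml as a sub-toxic cotreatment; 0% = median of DMSO wells and 100% = median of geldanamycin control wells; wells of about 8 µL received 7.5 nL stock; the first replicate is given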
Starred values were filed as active, the others as inactive; ? = inconclusive; / = not tested or not shown. Compounds were not picked by outcome. About 4.3% of those tested had a hit in this group.

Values in the order – Calb FLC	Beta apoptosis	LANA-H2B inh	RanGTP-Impb inh	Vif TR-FRET	T cruzi repl	Bfl-1 A1 inh	MLL AF4-AF9 inh
- COCCn1nnnc1C(c1ccc(OC)c(OC)c1)N1CCc2ccccc21 (stereo not drawn)
  -6	-5	2.9	4.6	-2%	1	-0.1	5.4
- O=C(N/N=C/c1ccccc1Cl)c1nc2ccc([N+](=O)[O-])cc2c(=O)[nH]1
  30	1	-2.2	-0.7	?	-3	-3.8	-1.2
- O=C(CCN1CCN(S(=O)(=O)c2cccc([N+](=O)[O-])c2)CC1)Nc1ccccc1F
  52	-4	-2.9	1.1	/	17	0.1	-1.3
- COc1cc(NC(=O)CCN2CCN(C/C=C/c3ccccc3)CC2)cc(OC)c1
  -5	-5	-1.1	0.1	11%	58*	1.0	9.4
- CC(C)(C)[C@H]1COC(=O)[C@H](Cc2ccc(F)cc2)CC/C=C/C[C@@H](CC(=O)N[C@H](CO)Cc2ccccc2)C(=O)N1
  /	-1	8.9	/	/	/	-0.3	2.6
- CCCc1ccc(-c2cc(C(=O)Nc3ccc([N+](=O)[O-])cn3)c3ccccc3n2)cc1
  26	16	0.8	-1.1	10%	52	1.7	8.7
- COc1ccc2oc(C(=O)OCC(=O)N3CC(C)CC(C)C3)c(C)c2c1 (stereo not drawn)
  -2	-11	1.7	2.3	-2%	-4	0.4	-24
- COC(=O)c1ccc(N2CCOCC2)c(NC(=O)c2ccc(Br)o2)c1
  1	-2	-3.3	0.1	/	2	-0.6	-1.7
- Cc1ccccc1OCCC(=O)Nc1ccccc1C(=O)N1CCCCC1
  /	-5	0.2	/	5%	/	-1.1	1.7
- COc1cc(C)c2occ(/C(C)=N\O)c2c1
  -2	-2	4.0	0.2	0%	6	0.1	/

Reprinted from the part before: 2 compounds, followed by the next part.
Values in the order – Calb FLC	Beta apoptosis	LANA-H2B inh	RanGTP-Impb inh	Vif TR-FRET	T cruzi repl	Bfl-1 A1 inh	MLL AF4-AF9 inh
- Cc1ccccc1OCCC(=O)Nc1ccccc1C(=O)N1CCCCC1
  /	-5	0.2	/	5%	/	-1.1	1.7
- COc1cc(C)c2occ(/C(C)=N\O)c2c1
  -2	-2	4.0	0.2	0%	6	0.1	/
- COc1ccc(OC)c(N/C(C)=C/C(=O)c2ccc(Br)cc2)c1
  19	7	-3.0	0.1	-4%	21	0.7	0.4
- Cc1ccc(S(=O)(=O)c2c(N)n(-c3ccccc3)c3nc4ccccc4nc23)cc1
  13	-5	-5.6	?	/	26	0.9	-3.2
- O=S(=O)(c1cccc(-n2cnnn2)c1)N1CCOCC1
  -5	-3	4.8	0.7	-2%	-8	-0.2	/
- O=C(Nc1ccccc1C(=O)Nc1ccccn1)c1cccc([N+](=O)[O-])c1
  -1	/	1.8	1.3	/	-8	-2.0	3.0
- CN(Cc1ccccc1)C(=O)COc1ccc(-c2nnco2)cc1
  -9	-7	0.5	-1.1	15%	-16	-0.1	-0.9
- CC(=O)c1ccc(S(=O)(=O)N2CCN(CCOc3ccc(Br)cc3)CC2)cc1
  /	0	-1.6	/	2%	/	-2.5	-0.8
- O=C(CSc1nc2nc(-c3cccs3)cc(C(F)(F)F)c2c(=O)[nH]1)NCc1ccco1
  6	-5	2.9	?	?	-3	-1.1	/
- CCc1ccc(OCC(=O)NC2CCCCC2)c(Br)c1
  -13	-5	-23	2.7	/	28	0.6	-0.4
- Cc1ccc(NC(=O)/C=C/c2ccco2)nc1
  2	21	-6.4	0.5	29%	-52	-2.0	4.3
- O=C(/C=C/c1ccco1)OCC(=O)c1ccc(OC(F)F)cc1
  /	6	0.9	/	-3%	/	2.1	0.1
- COc1ccc(S(=O)(=O)N2CCOCC2)cc1NC(=O)CSc1nnc(N)s1
  3	0	-0.7	0.1	-12%	0	-0.3	-0.5
- C=CCNc1nc(C(=O)OCC(=O)NCc2ccccc2OC)cs1
  2	/	-8.2	2.7	4%	-18	-0.4	1.1
- COCCCNC(=O)/C(C#N)=C/c1c(N2CCN(c3ccccc3)CC2)nc2ccccn2c1=O
  -1	-1	-11	26*	-1%	24	1.8	4.9
- COc1ccc(CCC(=O)O)cc1OC
  -4	-3	-4.5	0.6	-5%	-4	0.8	0.9
- Cc1cc(C)n(-c2nc(NCCN(C)C)c3c4c(sc3n2)COC(C)(C)C4)n1
  -44	-1	2.5	-6.7	-13%	27	0.1	1.9
- CC(C)Cn1c(SCc2nnc(-c3cccs3)o2)nc(O)cc1=O
  -2	-4	-4.1	1.2	?	-3	0.3	/
- Cc1cccc(C)c1NC(=O)CN1CCN(C(=O)CNC(=O)c2ccc(N3CCCC3=O)cc2)CC1
  /	1	/	/	5%	/	0.3	-0.5
- CC(C)C[C@H](NC(=O)OC(C)(C)C)C(=O)N/N=C/c1ccc2nccnc2c1
  -9	-1	6.4	?	1%	34	0.1	/
- CC(=O)Nc1ccc(N(C(=O)CNC(=O)c2cccs2)C(C(=O)NCC2CCCO2)c2ccccc2)cc1 (stereo not drawn)
  5	-5	-1.7	-0.2	/	-8	-0.8	2.1
- CCOC(=O)C1=C2N(C)c3ccccc3N2CCC1=O
  /	-1	-1.1	/	-3%	/	0.6	/

Only LANA-H2B inh, Beta apoptosis and T cruzi repl, for 3 of the compounds above:
SMILES	LANA-H2B inh	Beta apoptosis	T cruzi repl
Cc1cc(C)n(-c2nc(NCCN(C)C)c3c4c(sc3n2)COC(C)(C)C4)n1	2.5	-1	27
CC(C)Cn1c(SCc2nnc(-c3cccs3)o2)nc(O)cc1=O	-4.1	-4	-3
Cc1cccc(C)c1NC(=O)CN1CCN(C(=O)CNC(=O)c2ccc(N3CCCC3=O)cc2)CC1	/	1	/

Following part.
Values in the order – Calb FLC	Beta apoptosis	LANA-H2B inh	RanGTP-Impb inh	Vif TR-FRET	T cruzi repl	Bfl-1 A1 inh	MLL AF4-AF9 inh
- O=C(CN1C(=O)C2(OCCO2)c2cc(Br)ccc21)NO
  1	-8	-0.8	3.9	/	3	-1.5	/
- CN1CCN(C(=O)N(c2ccccc2)c2ccccc2)CC1
  2	-9	-1.0	3.7	/	-5	-0.9	0.1
- Cc1[nH]c2ccc3ccccc3c2c(=O)c1C/C=C/Cl
  4	3	-4.9	0.9	/	11	-0.8	-2.6
- NS(=O)(=O)c1ccc(CNC(=O)COc2ccc3c4c(c(=O)oc3c2)CCCC4)cc1
  -4	-4	-3.5	-2.5	/	0	-0.5	1.4
- CCCC(c1nnnn1C1CCCCC1)N1CCN(C(=O)c2ccco2)CC1 (stereo not drawn)
  0	-2	4.6	?	/	-13	-0.5	1.7
- CCOc1ccc(/C=C/C(=O)N(C)CC(=O)Nc2cccc(F)c2)cc1OCC
  -6	3	-4.8	0.3	/	2	0.8	-0.3
- CCCn1c(SC(C(=O)Nc2cc(C)ccc2OC)c2ccccc2)nc2ccccc2c1=O (stereo not drawn)
  -12	12	-1.9	2.9	/	20	0.2	/
- CCc1c(C)c(C#N)c2nc3ccccc3n2c1N1CCN(c2cc(C)ccn2)CC1
  -6	-1	2.3	6.9	4%	14	-0.2	/
- Cc1cccc[n+]1CC(=O)Nc1ccccc1
  -6	-4	-1.0	1.1	/	13	-1.4	0.0
- COc1ccccc1S(=O)(=O)NCc1ccc(C(=O)N(C)Cc2ccc(F)cc2)cc1
  /	-5	3.5	/	-14%	/	-0.2	-2.5
- CCCC[C@@H]1C[C@H]1[C@@H](NC(=O)c1ccccc1)c1ccccc1C(F)(F)F
  7	-5	1.9	2.1	/	-10	0.4	/
- CCOC(=O)C1(CC2CCCCO2)CCN(S(=O)(=O)c2ccc(OC)cc2)CC1 (stereo not drawn)
  -19	-8	0.0	0.9	3%	1	0.7	-2.0
- Cc1noc(C)c1C(=O)Nc1nc(-c2ccccc2Cl)cs1
  2	5	6.6	-1.7	9%	-2	-1.7	/
- Cc1c(C(=O)NCCCN2CCCC2=O)oc2ccc(S(=O)(=O)N3CCOCC3)cc12
  /	-6	2.8	/	1%	/	0.1	/
- CCc1nc(N)c(C#N)c(-c2cccn2C)c1C
  43	5	-1.8	2.2	-2%	-8	0.2	/
- CCOC(=O)CNC(=O)C1CCCc2c1[nH]c1ccc(Cl)cc21 (stereo not drawn)
  -5	1	-0.1	-1.2	/	-4	-0.2	2.5
- CCOc1ccc(NC(=S)NN(C)C(=S)Nc2ccc(OCC)cc2)cc1
  0	3	-5.9	1.0	4%	14	0.2	/
- Cc1ccccc1COn1nnc2ccc(S(=O)(=O)N3CCOCC3)cc21
  5	5	-3.2	-1.4	1%	-1	-0.2	-9.3
- Cc1ccc2nsnc2c1S(=O)(=O)N1CCCC1
  -3	-4	1.3	3.3	19%	-3	-0.1	/
- Cc1ccc(C)c(N2CCN(c3ncccc3[N+](=O)[O-])CC2)c1
  -9	4	-1.0	-0.8	-3%	13	0.4	21
- CCOC(=O)C1CCN(C(=O)c2ccccc2NC(=O)C2=C(C)OCCS2)CC1
  31	-5	-3.5	2.6	31%	-14	-1.3	-1.1
- Cc1cccc(OCc2nnc(SCC(=O)N3CCN(c4ccccc4)CC3)o2)c1C
  -7	4	-1.3	-0.6	-6%	5	0.7	/
- COc1c(S(=O)(=O)N2CCCC2)ccc(Cl)c1Cl
  -4	-13	1.6	0.5	3%	-7	0.5	/
- O=C(CCCCn1c(=O)[nH]c2ccccc2c1=O)NCCC1=CCCCC1
  48	-1	-1.8	1.6	-1%	2	0.0	/
- OCCOCCn1c(CCNc2nc(-c3ccc(Cl)cc3)cs2)nc2cc(Cl)c(Cl)cc21
  -4	-14	4.2	-1.6	/	21	-0.1	/
- CCOc1ccc(C(=O)OCC(=O)Nc2ccc(SC(F)F)cc2)cc1OCC
  -3	-3	-0.6	5.3	8%	9	-1.1	/
- CC1(C)C(=S)N(Cc2ccccc2)c2ccccc21
  -1	-13	-3.8	-2.0	/	6	1.8	-13
- COc1ccc(OCC(=O)Nc2ccc3c(c2)nc(CN2CCN(C(C)=O)CC2)n3C)cc1
  -18	2	0.5	2.5	0%	-9	-0.8	-5.0
